Rango dissoc inh: qHTS Assay for Inhibitors of RanGTP induced Rango (Ran-regulated importin-beta cargo) - Importin beta complex dissociation | Snurportin-1 (Homo sapiens) + GTP-binding nuclear protein Ran (Homo sapiens) + Importin … | Biochemical FRET Rango-importin beta, RanGTP-induced dissociation | Potency, µM (series often up to 46.1 µM), for the others: at the top dose activity change, negative = inhibition | actives 0.071% (n = 340,000) | AID 540253, 2011; active means falling FRET ratio curve, often poorly fitted, with flat reads before Ran was added; inconclusive means other falling curves, or compound fluorescence or quenching; inactive means flat or rising ratio curve;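 also: potency is read from the fitted curve at half-maximal effect; % of control where 0% means no effect; nearly all actives have a fitted effect of over 45% in size; -100% = wells without RanGTP and RCC1; the record marks most hits as doubtful in a second field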
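Two FRET readings bracket the reaction: one 5 min after compound meets Rango–importin beta, another 45 min after RanGTP-RCC1 (0.6 uM Ran, 0.2 uM RCC1, 2 mM GTP) is added. Only the second defines inhibition.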
Rango-impB inh: qHTS Assay for Inhibitors of Rango (Ran-regulated importin-beta cargo) - Importin beta complex formation. Importin subunit beta-1 (Homo sapiens), Q14974. Rango CFP/YFP FRET sensor + importin beta, 45 min. Potency, µM (top dose mostly 92.2 µM), for inactives: at the highest dose inhibition of complex formation. actives 0.031% (n = 340,000); active = rising FRET ratio curve, often small or poorly fitted; inconclusive = mostly compound fluorescence or quenching in the first reads; inactive = flat curves in all reads;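 also: potency is read from the fitted curve at half-maximal effect; 0% = DMSO wells and 100% = buffer wells lacking importin beta; nearly all actives have a fitted effect of over 15% in size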
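FRET biosensor Rango (snurportin 1 IBB between N-terminal EYFP and C-terminal Cerulean), 50 nM in PBS/1 mM DTT/0.02% Tween-20/0.1% BSA, preincubated 5 min RT with compound; 0.125 microM importin beta added, 45 min RT, CFP/YFP FRET ratio read.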
GLA inh pH 4.5: qHTS Assay for Inhibitors of Human alpha-Galactosidase at pH 4.5; activity change, negative = inhibition, % at 105 µM; 230,000 tested, under 10 active; purified enzyme, 4-MU-alpha-Gal fluorescence, pH 4.5; Alpha-galactosidase A (Homo sapiens), P06280; inconclusive = small, poorly fitted or top-dose-only inhibition, or a rising curve; inactive = flat fitted curve, though single readings scatter; no compound was filed as active;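 also: 0% = full activity with enzyme and -100% = basal without enzyme; dose as in the result columns while the protocol names 77 µM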
Target sequence (P06280 whole entry, looked up): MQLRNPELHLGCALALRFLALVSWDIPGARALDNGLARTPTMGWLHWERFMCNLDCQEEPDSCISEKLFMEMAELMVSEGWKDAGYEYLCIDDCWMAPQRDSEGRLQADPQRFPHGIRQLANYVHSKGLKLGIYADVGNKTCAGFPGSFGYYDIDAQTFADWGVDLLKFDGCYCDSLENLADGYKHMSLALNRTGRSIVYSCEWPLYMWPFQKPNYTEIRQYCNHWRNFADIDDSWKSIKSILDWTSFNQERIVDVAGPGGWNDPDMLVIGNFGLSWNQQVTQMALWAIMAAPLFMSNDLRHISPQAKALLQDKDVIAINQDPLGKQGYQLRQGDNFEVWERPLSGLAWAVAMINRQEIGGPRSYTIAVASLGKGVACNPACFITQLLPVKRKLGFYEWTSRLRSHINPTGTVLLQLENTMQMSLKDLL
miR-21 reporter: qHTS Assay for Modulators of miRNAs and/orActivators of miR-21; Potency, µM (top dose mostly 38.3 µM), for the others: at the top dose reporter change, positive = more light; 340,000 tested, under 10 active; AID 2288, 2010; HeLa miR-21 FLuc reporter, luciferase, 48 h; active = well fitted rising curve with a large enough effect; inconclusive = small, poorly fitted or top-dose-only effect; inactive = no such curve, though single readings can be large or run the other way;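 also: % of control where 0% means no effect; miR-21 action dims this reporter so a rising signal means less miR-21 action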
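HeLa cells stably expressing CMV-driven firefly luciferase with a downstream miR-21 binding sequence, endogenously expressing miR-21, were treated with titrations (up to about 40uM final) for 48 hours at 37 degree Celsius. Luciferase luminescence was read after lysis.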
* = called active by the depositor.

For Cn1c(C(=O)N2CCN(c3ccc(F)cc3)CC2)cc2ccccc21 the results were Rango dissoc inh 11%, Rango-impB inh 0.4% and miR-21 reporter 3%.
O=C(NCC(c1cccs1)N1CCOCC1)c1ccccc1NS(=O)(=O)c1ccc(Cl)c([N+](=O)[O-])c1 (configuration not stated) was read as Rango dissoc inh 2%, Rango-impB inh -0.3%, GLA inh pH 4.5 -26 and miR-21 reporter 23%.
Screening COc1ccc(C(=O)N=S2CCN(C(=O)c3ccc(Cl)cc3)CC2)cc1 returned Rango dissoc inh -15%, Rango-impB inh -0.3%, GLA inh pH 4.5 -2 and miR-21 reporter -1%.
C/C(=N\S(=O)(=O)c1ccc(C)cc1)N(C)C was read as Rango dissoc inh -15%, Rango-impB inh 1.3%, GLA inh pH 4.5 -10 and miR-21 reporter 0%.
For Cc1nc(Nc2ccc(Cl)c(Cl)c2)sc1C(/C=C/c1ccc2c(c1)OCO2)=NNc1ccc([N+](=O)[O-])cc1[N+](=O)[O-] the results were Rango dissoc inh -21% and Rango-impB inh -2.6%.
For O=C(Nc1ccc(Br)cc1)c1ccco1 the results were Rango dissoc inh -1%, Rango-impB inh 3.1%, GLA inh pH 4.5 8 and miR-21 reporter -50%.
`O=C(NCc1cccnc1)C(=O)Nc1nc(-c2ccccc2)cs1` gave Rango dissoc inh -5%, Rango-impB inh -0.7%, GLA inh pH 4.5 3 and miR-21 reporter -7%.
For Cc1ccc(-c2nc(CSCC(=O)N3CCN(C(=O)c4ccco4)CC3)c(C)o2)cc1 the results were Rango dissoc inh -7%, Rango-impB inh -0.9%, GLA inh pH 4.5 2 and miR-21 reporter 9%.
CC(OC(=O)c1cc(=O)[nH]c2ccccc12)C(=O)NC1CCCCC1C (configuration not stated) was read as Rango dissoc inh 5% and Rango-impB inh 0.9%.
Cc1ccc(NC(=O)Cn2cccc2)c(C)c1 was read as Rango dissoc inh -2%, Rango-impB inh -0.8%, GLA inh pH 4.5 1 and miR-21 reporter -4%.
For Cc1cc(C)c2cc(C#N)c(SCC(=O)Nc3ccc4c(c3)OCO4)nc2c1 the results were Rango dissoc inh 17%, Rango-impB inh -0.6%, GLA inh pH 4.5 4 and miR-21 reporter -10%.
`CCOc1cccc(OCCOc2ccc(C(=O)c3ccccc3)cc2)c1` gave Rango dissoc inh 1%, Rango-impB inh -0.6%, GLA inh pH 4.5 0 and miR-21 reporter -1%.
For CCOc1cc(N2CCOCC2)c(OCC)cc1NC(=O)CN1C(=O)NC2(CCCCCCC2)C1=O the results were Rango dissoc inh inconclusive, Rango-impB inh -2.5%, GLA inh pH 4.5 1 and miR-21 reporter -2%.
COC(=O)C1=NNC2(c3ccc(C)cc3)C(=O)N(c3ccc(C)cc3)C(=O)C12 (configuration not stated) was read as Rango dissoc inh -8%, Rango-impB inh 1.6%, GLA inh pH 4.5 5 and miR-21 reporter 0%.
For O=C(NCc1ccncc1)c1cccc(F)c1 the results were Rango dissoc inh 1%, Rango-impB inh inconclusive, GLA inh pH 4.5 4 and miR-21 reporter -3%.

Overlap with the part before: four compounds, then new ones.
`CCOc1cccc(OCCOc2ccc(C(=O)c3ccccc3)cc2)c1` gave Rango dissoc inh 1%, Rango-impB inh -0.6%, GLA inh pH 4.5 0 and miR-21 reporter -1%.
For CCOc1cc(N2CCOCC2)c(OCC)cc1NC(=O)CN1C(=O)NC2(CCCCCCC2)C1=O the results were Rango dissoc inh inconclusive, Rango-impB inh -2.5%, GLA inh pH 4.5 1 and miR-21 reporter -2%.
COC(=O)C1=NNC2(c3ccc(C)cc3)C(=O)N(c3ccc(C)cc3)C(=O)C12 (configuration not stated) was read as Rango dissoc inh -8%, Rango-impB inh 1.6%, GLA inh pH 4.5 5 and miR-21 reporter 0%.
For O=C(NCc1ccncc1)c1cccc(F)c1 the results were Rango dissoc inh 1%, Rango-impB inh inconclusive, GLA inh pH 4.5 4 and miR-21 reporter -3%.
For CCCOc1ccc(CC(CC(=O)O)(C(=O)O)C(=O)O)cc1 the results were Rango dissoc inh 11%, Rango-impB inh -0.3%, GLA inh pH 4.5 -2 and miR-21 reporter -3%.
Screening NS(=O)(=O)c1ccc(N/N=C/c2ccc(C(=O)O)cc2)c([N+](=O)[O-])c1 returned Rango dissoc inh -7%, Rango-impB inh -0.3%, GLA inh pH 4.5 4 and miR-21 reporter -1%.
NS(=O)(=O)c1ccc(S(=O)(=O)c2ccccc2)nc1 was read as Rango dissoc inh -3% and Rango-impB inh 6.6%.
Cc1ccc(C2=NN(CC(=O)NCCN(C)C)C(=O)CC2)cc1 was read as Rango dissoc inh -14%, Rango-impB inh -1.0% and miR-21 reporter -2%.
CC(C)(C)n1nc2c(c1NC(=O)COc1ccc(Cl)cc1)CS(=O)(=O)C2 was read as Rango dissoc inh -21%, Rango-impB inh -3.9%, GLA inh pH 4.5 -4 and miR-21 reporter 1%.
`CCc1cccc(NS(=O)(=O)c2c(C)n[nH]c2C)c1` gave Rango dissoc inh 4%, Rango-impB inh -2.1%, GLA inh pH 4.5 -2 and miR-21 reporter -3%.
`CCn1c(C(O)c2ccccc2)nc2ccccc21` (configuration not stated) gave Rango dissoc inh -2%, Rango-impB inh -2.5%, GLA inh pH 4.5 -5 and miR-21 reporter 0%.
Cc1[nH]c2ccccc2c1N=Nc1c(C)n(C)n(-c2ccccc2)c1=O was read as Rango dissoc inh -16%, Rango-impB inh -0.3%, GLA inh pH 4.5 -7 and miR-21 reporter -7%.
Screening Cc1c(C)n(CCc2c[nH]c3ccccc23)ccc1=O returned Rango dissoc inh -9%, Rango-impB inh 0.1%, GLA inh pH 4.5 5 and miR-21 reporter 1%.
`O=C(COC(=O)CCC(=O)c1ccc(Cl)cc1)NCC1CCCO1` (configuration not stated) gave Rango dissoc inh -5%, Rango-impB inh -0.4%, GLA inh pH 4.5 7 and miR-21 reporter -1%.
Cc1c(C(=O)N2CCCc3ccccc32)oc2ccc(S(=O)(=O)N3CCOCC3)cc12 was read as Rango dissoc inh -9%, Rango-impB inh -4.0%, GLA inh pH 4.5 0 and miR-21 reporter 4%.
Screening Cc1ccc(-c2cc(C(=O)NCc3cccs3)no2)cc1 returned Rango dissoc inh inconclusive, Rango-impB inh 1.3%, GLA inh pH 4.5 -2 and miR-21 reporter -28%.
For COCCCNC(=O)C1CC(=O)N(c2ccc(C)cc2)C1 (configuration not stated) the results were Rango dissoc inh -11%, Rango-impB inh 0.2%, GLA inh pH 4.5 2 and miR-21 reporter -6%.
CC(C)(C)OC(=O)C[C@@H]1C/C=C\C[C@H](CC(=O)N(CCO)Cc2ccccc2)C(=O)N[C@H](Cc2ccccc2)COC1=O was read as Rango dissoc inh 1% and Rango-impB inh -0.9%.
Screening O=C(NC1CCCCC1)C1CC(=O)N(c2ccc(Cl)cc2)C1 (configuration not stated) returned Rango dissoc inh -7%, Rango-impB inh 3.4%, GLA inh pH 4.5 0 and miR-21 reporter -1%.

Filtered by structure, the entries above containing two or more sulfur atoms
O=C(NCC(c1cccs1)N1CCOCC1)c1ccccc1NS(=O)(=O)c1ccc(Cl)c([N+](=O)[O-])c1 (configuration not stated) was read as Rango dissoc inh 2%, Rango-impB inh -0.3%, GLA inh pH 4.5 -26 and miR-21 reporter 23%.
NS(=O)(=O)c1ccc(S(=O)(=O)c2ccccc2)nc1 was read as Rango dissoc inh -3% and Rango-impB inh 6.6%.

Compounds above that have fluorine, in the order listed:
For Cn1c(C(=O)N2CCN(c3ccc(F)cc3)CC2)cc2ccccc21 the results were Rango dissoc inh 11%, Rango-impB inh 0.4% and miR-21 reporter 3%.
For O=C(NCc1ccncc1)c1cccc(F)c1 the results were Rango dissoc inh 1%, Rango-impB inh inconclusive, GLA inh pH 4.5 4 and miR-21 reporter -3%.

(list continues)
CC(C)CCN1C(=O)c2ccc(C(=O)Nc3ccccc3C(=O)O)cc2C1=O was read as Rango dissoc inh 4%, Rango-impB inh 1.6% and miR-21 reporter 1%.
For CC(C)C[C@@H](CN1CCC[C@@H]1CN1C(=O)C(=O)NC[C@@H]1Cc1ccccc1)N1C[C@H](Cc2ccc(O)cc2)N(CC2CCCCC2)C(=O)C1=O the results were Rango dissoc inh 0% and Rango-impB inh -1.1%.
CCCC(=O)Nc1ccc(Br)cn1 was read as Rango dissoc inh -1%, Rango-impB inh 3.0%, GLA inh pH 4.5 5 and miR-21 reporter 7%.
Cc1cc(S(=O)(=O)NCc2ccccc2)ccc1OCC(=O)NCc1ccncc1 was read as Rango dissoc inh 7%, Rango-impB inh 0.3% and miR-21 reporter -40%.
For O=P(c1ccccc1)(c1ccccc1)C(O)c1ccc(Br)cc1 (configuration not stated) the results were Rango dissoc inh -15%, Rango-impB inh -0.5% and miR-21 reporter 3%.
Screening COc1ccc(/C=C/C(=O)NCC(=O)N/N=C/c2cccnc2)cc1 returned Rango dissoc inh 0%, Rango-impB inh 6.1%, GLA inh pH 4.5 0 and miR-21 reporter 0%.
O=C(O)c1cc(S(=O)(=O)N2CCCC2)ccc1Br was read as Rango dissoc inh -4%, Rango-impB inh 4.5%, GLA inh pH 4.5 -1 and miR-21 reporter 1%.
Screening CC(C)CN(C(=O)COC(=O)c1cc2ccccc2oc1=O)C1CCS(=O)(=O)C1 (configuration not stated) returned GLA inh pH 4.5 4 and miR-21 reporter -19%.
Cc1ccc(OCc2cc(C(=O)NCC(C)(C)N3CCOCC3)no2)cc1C was read as Rango dissoc inh 0%, Rango-impB inh 0.4% and miR-21 reporter 23%.
For O=C(c1ccc2ccccc2c1)N1CCN(c2ccccc2)CC1 the results were Rango dissoc inh 7%, Rango-impB inh 2.2%, GLA inh pH 4.5 3 and miR-21 reporter -17%.
Screening O=C1c2ccccc2C(=O)N1C1CCCCC1 returned Rango dissoc inh 5%, Rango-impB inh 0.1% and miR-21 reporter -4%.
`O=c1c2ccccc2oc2cc(-c3ccc4[nH]ccc4c3)ccc12` gave Rango dissoc inh -14% and Rango-impB inh 1.7%.
For COc1ccc(Nc2nc3ccccc3s2)cc1 the results were Rango dissoc inh -5%, Rango-impB inh -1.8%, GLA inh pH 4.5 6 and miR-21 reporter -57%.
For CCCC(C)NC(=O)CN1C(=O)NC2(CCc3ccccc32)C1=O (configuration not stated) the results were Rango dissoc inh -7%, Rango-impB inh -0.2% and miR-21 reporter 0%.
COc1ccc(/C=C(/NC(=O)c2ccccc2)C(=O)N2CCCC2)cc1 was read as Rango dissoc inh 3%, Rango-impB inh -0.9% and miR-21 reporter -3%.
NC(=O)C1(NC(=O)[C@@H]2CC3(CC(c4cccc(NC(=O)[C@@H]5CCC(=O)N5)c4)=NO3)CN2C(=O)Cc2ccc(C(F)(F)F)cc2)CC1 (some centres not stated) was read as Rango dissoc inh -9%, Rango-impB inh 0.5%, GLA inh pH 4.5 -3 and miR-21 reporter 0%.
COc1cccc2cc(C(=O)Nc3ccccc3Cl)/c(=N/NS(=O)(=O)c3ccccc3)oc12 was read as Rango dissoc inh 14%, Rango-impB inh -0.2% and miR-21 reporter -8%.
Cc1n[nH]c(=S)n1/N=C/c1ccc(-c2ccc(Cl)cc2)o1 was read as Rango dissoc inh 0% and Rango-impB inh -0.2%.

Not all compounds are listed. The share of hits here may be higher or lower than overall.
